Sa growth inh: S. aureus growth inhibition; 0.53% of 170,000 active; relative growth, % (test concentration not listed); S. aureus RN4220 growth, OD600, 20 h, 42 °C; hits give low values;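 active = growth at 42 °C up to 50% and 20 or more points under that at 30 °C, or under 10% at both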;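 also: 300 nL library stock went into each well; scaled to the means of positive and negative controls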
HCMV UL50-53 inh: cytomegalovirus nuclear egress complex inhibition; HTRF UL50-UL53 interaction, normalized percent inhibition; inhibition, % (no concentration beside the values); 0.15% of 190,000 active;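 active = both replicates at 50% or more, plus weaker picks with an unusually low signal ratio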;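 also: stock transfer was 100 nL into about 20 µL; 0% = negative control wells and 100% = wells with untagged competitor protein; inactives centre near -12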
GIV Gai3 FP: blocks GIV peptide binding to rat Galpha-i3 | Galpha-i3/FITC-GIV peptide fluorescence polarization, 90 min; hits give low values; scaled: aluminum fluoride 0%, vehicle 100% | AID 1224905 | 0.42% of 210,000 active | percent of control (FP), % (concentration not given with the values) | P08753;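 active = replicate mean at 85% of control or lower, very high polarization wells dropped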;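 also: wells of about 15 µL received 100 nL stock; the first replicate is given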
Target sequence (P08753 whole entry, looked up): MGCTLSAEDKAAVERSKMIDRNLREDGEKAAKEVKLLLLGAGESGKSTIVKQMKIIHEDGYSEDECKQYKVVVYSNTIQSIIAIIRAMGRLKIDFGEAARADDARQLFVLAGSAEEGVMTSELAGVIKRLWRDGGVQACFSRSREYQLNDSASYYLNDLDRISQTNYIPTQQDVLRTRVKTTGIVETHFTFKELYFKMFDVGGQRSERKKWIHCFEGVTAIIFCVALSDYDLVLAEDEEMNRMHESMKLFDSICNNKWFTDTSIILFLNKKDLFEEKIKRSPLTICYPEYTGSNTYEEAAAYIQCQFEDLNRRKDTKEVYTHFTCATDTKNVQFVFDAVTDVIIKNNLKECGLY
Sa growth inh second temp: second read-out of Sa growth inh, no call of its own (marks repeat the call); relative growth, %; measured here: growth at 30 °C;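 optical density after 20 h as mean of two plates; 100% = untreated growth and lower means inhibition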
An asterisk follows results filed as active. Outcome played no part in choosing rows. About 0.82% of those tested had a hit in this group.

Results for O=C(C1CCN(C2CC(=O)N(c3ccc4c(c3)OCO4)C2=O)CC1)N1CCCCCC1 (stereo not drawn) ?
Sa growth inh: 82; HCMV UL50-53 inh: -33; GIV Gai3 FP: 98; Sa growth inh second temp: 93

What do the screens show for `O=C1CC2CCC(CN1)N2CC(=O)Nc1ccccc1C(F)(F)F` (stereo not drawn)?
Sa growth inh: 90; HCMV UL50-53 inh: 2; GIV Gai3 FP: 100; Sa growth inh second temp: 89

How did CCOc1ccc2nc(N3CCCC(C(=O)NCCc4ccc(OC)cc4OC)C3)sc2c1 (stereo not drawn) do in these assays?
Sa growth inh: 111; HCMV UL50-53 inh: -10; GIV Gai3 FP: 108; Sa growth inh second temp: 69

How did Cc1ccc2[nH]cc(CCNC(=O)CCn3c(=O)c(C)nc4cc(C)c(C)cc43)c2c1 do in these assays?
HCMV UL50-53 inh: -44; GIV Gai3 FP: 120

How did CN(c1cccc(Cl)c1)S(=O)(=O)c1cccc(C(=O)NN2CCOCC2)c1 do in these assays?
Sa growth inh: 92; HCMV UL50-53 inh: -33; Sa growth inh second temp: 82

How did CCN(CC)CCn1c(C)c(C)c2c1ncn1nc(-c3cccnc3)nc21 do in these assays?
HCMV UL50-53 inh: -7; GIV Gai3 FP: 101

Results for C=CCOC(=O)c1ccc2c(c1)C(=O)N(c1ccccc1)C2=O ?
Sa growth inh: 89; HCMV UL50-53 inh: -13; GIV Gai3 FP: 98; Sa growth inh second temp: 88

Results for Cc1ccc(N2CC(NC(=O)/C=C\c3ccc4c(c3)OCO4)CC2=O)cc1C (stereo not drawn) ?
Sa growth inh: 117; GIV Gai3 FP: 107; Sa growth inh second temp: 100

How did Cc1cccc(C)c1NC(=O)C1(N(C)C(=O)CSc2nc3ccccc3o2)CCCCC1 do in these assays?
Sa growth inh: 74; HCMV UL50-53 inh: -14; Sa growth inh second temp: 80

How did CNc1nc2ccccc2o1 do in these assays?
Sa growth inh: 116; HCMV UL50-53 inh: -8; GIV Gai3 FP: 109; Sa growth inh second temp: 84

Results for O=C(/C=C\c1ccco1)Oc1cccc2cccnc12 ?
Sa growth inh: 1.6*; HCMV UL50-53 inh: -48; GIV Gai3 FP: 103; Sa growth inh second temp: 0.8*

Results for O=C(COC(=O)c1ccc(S(=O)(=O)Nc2ccccc2)cc1)NCC1CCCO1 (stereo not drawn) ?
Sa growth inh: 103; HCMV UL50-53 inh: -13; Sa growth inh second temp: 93

Results for CC(=O)Nc1cc(C)ccc1OC(C)(C)C(=O)OC(C)(C)C ?
Sa growth inh: 91; HCMV UL50-53 inh: -10; GIV Gai3 FP: 105; Sa growth inh second temp: 82

Results for COc1ccc(-c2cc(C(=O)N3CCOCC3)c3c(-c4ccc(Cl)cc4)[nH]nc3n2)cc1 ?
Sa growth inh: 95; HCMV UL50-53 inh: -7; GIV Gai3 FP: 112; Sa growth inh second temp: 103

What do the screens show for `N#CCCN(CCc1ccccn1)S(=O)(=O)c1ccc2c(c1)CCO2`?
Sa growth inh: 108; HCMV UL50-53 inh: -32; GIV Gai3 FP: 106; Sa growth inh second temp: 88

How did CC(=O)Nc1ccc(OCC(O)Cn2ccnc2)cc1 (stereo not drawn) do in these assays?
Sa growth inh: 88; HCMV UL50-53 inh: 0; GIV Gai3 FP: 108; Sa growth inh second temp: 79

Results for COc1ccc(NC(=O)CN(C)S(=O)(=O)c2ccc3c(c2)CCCC(=O)N3)c(OC)c1 ?
HCMV UL50-53 inh: -8; GIV Gai3 FP: 103

Results for CC(C)c1ccc(C(=O)OCC(=O)NCc2ccco2)cc1 ?
Sa growth inh: 110; HCMV UL50-53 inh: -12; Sa growth inh second temp: 96

How did N#Cc1c(-c2ccccc2)n2c(-c3ccccc3)nn(-c3ccccc3)c2nc1=O do in these assays?
Sa growth inh: 115; HCMV UL50-53 inh: 0; GIV Gai3 FP: 104; Sa growth inh second temp: 89

Results for COc1cccc(N2C(=O)/C(=C\N3CCCCC3)C(=O)NC2=S)c1 ?
Sa growth inh: 100; HCMV UL50-53 inh: 5; GIV Gai3 FP: 103; Sa growth inh second temp: 78

Pulled by compound from above (seven):
Results for CC(=O)Nc1cc(C)ccc1OC(C)(C)C(=O)OC(C)(C)C ?
Sa growth inh: 91; HCMV UL50-53 inh: -10; GIV Gai3 FP: 105; Sa growth inh second temp: 82

Results for O=C(COC(=O)c1ccc(S(=O)(=O)Nc2ccccc2)cc1)NCC1CCCO1 (stereo not drawn) ?
Sa growth inh: 103; HCMV UL50-53 inh: -13; Sa growth inh second temp: 93

Results for O=C(/C=C\c1ccco1)Oc1cccc2cccnc12 ?
Sa growth inh: 1.6*; HCMV UL50-53 inh: -48; GIV Gai3 FP: 103; Sa growth inh second temp: 0.8*

Results for CC(C)c1ccc(C(=O)OCC(=O)NCc2ccco2)cc1 ?
Sa growth inh: 110; HCMV UL50-53 inh: -12; Sa growth inh second temp: 96

How did CC(=O)Nc1ccc(OCC(O)Cn2ccnc2)cc1 (stereo not drawn) do in these assays?
Sa growth inh: 88; HCMV UL50-53 inh: 0; GIV Gai3 FP: 108; Sa growth inh second temp: 79

How did N#Cc1c(-c2ccccc2)n2c(-c3ccccc3)nn(-c3ccccc3)c2nc1=O do in these assays?
Sa growth inh: 115; HCMV UL50-53 inh: 0; GIV Gai3 FP: 104; Sa growth inh second temp: 89

What do the screens show for `N#CCCN(CCc1ccccn1)S(=O)(=O)c1ccc2c(c1)CCO2`?
Sa growth inh: 108; HCMV UL50-53 inh: -32; GIV Gai3 FP: 106; Sa growth inh second temp: 88

Continued.
How did Cc1cc(C(=O)OCC(=O)Nc2ccccc2C#N)c(C)n1-c1ccc(F)cc1 do in these assays?
Sa growth inh: 89; HCMV UL50-53 inh: -10; Sa growth inh second temp: 97

Results for CCC(C(=O)NCCc1ccc(Cl)cc1)n1nc(C)c2c(C)n(-c3ccccc3)nc2c1=O (stereo not drawn) ?
Sa growth inh: 89; GIV Gai3 FP: 99; Sa growth inh second temp: 83

Results for O=C(O)CCS(=O)(=O)Cc1ccccc1F ?
Sa growth inh: 97; HCMV UL50-53 inh: -7; GIV Gai3 FP: 101; Sa growth inh second temp: 92

What do the screens show for `O=C(NCCc1c[nH]c2ccc(Cl)cc12)c1ccc(CN2C(=O)CCn3nccc32)cc1`?
HCMV UL50-53 inh: -12; GIV Gai3 FP: 99

What do the screens show for `O=C(CCC1COc2ccccc2O1)Nc1ccccc1Cl` (stereo not drawn)?
Sa growth inh: 100; HCMV UL50-53 inh: 4; GIV Gai3 FP: 108; Sa growth inh second temp: 103

Results for CN1C(=O)CSc2ccc(NC(=O)N3CCc4ccccc43)cc21 ?
Sa growth inh: 90; GIV Gai3 FP: 105; Sa growth inh second temp: 81

How did Cn1ccsc1=NC(=O)/C=C/c1cc(Cl)c2c(c1)OCCCO2 do in these assays?
Sa growth inh: 115; HCMV UL50-53 inh: -35; Sa growth inh second temp: 96

What do the screens show for `O=c1c2ccc(-c3nnc(SCc4cn5ccccc5n4)o3)cc2nc2n1CCCCC2`?
Sa growth inh: 90; HCMV UL50-53 inh: -10; Sa growth inh second temp: 88

What do the screens show for `CC(=O)Nc1cccc(Oc2nnc(-c3ccccc3)c3ccccc23)c1`?
Sa growth inh: 101; HCMV UL50-53 inh: 6; Sa growth inh second temp: 97

Results for CCc1ccc(-n2nc(CO)c(C(=O)NCc3ccccc3OC)n2)cc1 ?
Sa growth inh: 104; HCMV UL50-53 inh: -22; GIV Gai3 FP: 100; Sa growth inh second temp: 90

Results for CCCC12CN3CC(CCC)(CN(C1)C31C(=O)Nc3ccccc31)C2=O (stereo not drawn) ?
Sa growth inh: 97; HCMV UL50-53 inh: -6; GIV Gai3 FP: 106; Sa growth inh second temp: 97

How did O=C(O)c1ccccc1NCc1ccc(Cl)cc1 do in these assays?
Sa growth inh: 120; GIV Gai3 FP: 101; Sa growth inh second temp: 71

How did N#C/C(=C\c1ccc(-c2ccccc2Br)o1)C(=O)N1CCOCC1 do in these assays?
Sa growth inh: 102; HCMV UL50-53 inh: 15; GIV Gai3 FP: 108; Sa growth inh second temp: 66

How did CCn1cnc2sc(C(=O)Nc3ccccc3)c(C)c2c1=O do in these assays?
Sa growth inh: 102; HCMV UL50-53 inh: -16; GIV Gai3 FP: 105; Sa growth inh second temp: 80

How did O=C(c1ccccc1OCc1nc(-c2ccccc2)no1)N1CCCCC1 do in these assays?
HCMV UL50-53 inh: -5; GIV Gai3 FP: 106

What do the screens show for `S=C(Nc1cccnc1)NC(c1ccccc1)c1ccccc1`?
Sa growth inh: 66; HCMV UL50-53 inh: 3; Sa growth inh second temp: 63

Results for Cc1cccc(NC(=O)c2cnn(-c3ccc(F)cc3)c2C2CCN(C(=O)OC(C)(C)C)CC2)c1C ?
Sa growth inh: 88; GIV Gai3 FP: 107; Sa growth inh second temp: 95

How did CCOC(=O)c1cnc(C(F)(F)F)nc1Nc1ccccc1 do in these assays?
Sa growth inh: 101; HCMV UL50-53 inh: 3; GIV Gai3 FP: 97; Sa growth inh second temp: 102

How did Cc1nn(-c2ccccc2)nc1CNC(=O)c1cccs1 do in these assays?
Sa growth inh: 121; HCMV UL50-53 inh: -20; GIV Gai3 FP: 108; Sa growth inh second temp: 87

How did c1ccc2c(c1)nnn2CN1CCCCC1 do in these assays?
Sa growth inh: 92; HCMV UL50-53 inh: -61; Sa growth inh second temp: 70

How did COc1ccc(S(=O)(=O)N2CCC(NC(=O)NC(C)c3ccncc3)CC2)cc1 (stereo not drawn) do in these assays?
HCMV UL50-53 inh: 11; GIV Gai3 FP: 100

How did Cc1ccc(NCC(=O)SCc2csc(Nc3ccccc3)n2)cc1 do in these assays?
Sa growth inh: 98; HCMV UL50-53 inh: -18; Sa growth inh second temp: 90

How did O=C1CCCC2=C1C(c1ccncc1)c1c(nc(SCc3ccccc3)[nH]c1=O)N2 (stereo not drawn) do in these assays?
Sa growth inh: 102; HCMV UL50-53 inh: -6; GIV Gai3 FP: 100; Sa growth inh second temp: 84

Results for Cc1noc2ncnc(SCC(=O)Nc3ccccc3Cl)c12 ?
Sa growth inh: 106; HCMV UL50-53 inh: 2; GIV Gai3 FP: 98; Sa growth inh second temp: 86

What do the screens show for `Cc1cc(=O)[nH]c(-n2nc(C)cc2NC(=O)c2ccc(OC(C)C)cc2)n1`?
HCMV UL50-53 inh: -27; GIV Gai3 FP: 99

What do the screens show for `CCOc1ccc(-c2ccc(NS(=O)(=O)c3ccc(C)cc3)cc2)nn1`?
Sa growth inh: 99; GIV Gai3 FP: 98; Sa growth inh second temp: 94

What do the screens show for `COc1ccc2c(c1)c(N1CCCC1=O)c(C(=O)Nc1ccc(Cl)cc1C)n2C`?
Sa growth inh: 123; GIV Gai3 FP: 104; Sa growth inh second temp: 106

How did CNC(=O)Nc1ccc2nc3n(c(=O)c2c1)CCCC3 do in these assays?
HCMV UL50-53 inh: -3; GIV Gai3 FP: 104

How did CCCn1c(=O)c2ccc(Cl)cc2n2c(=O)n(CC(=O)Nc3ccc4c(c3)OCO4)nc12 do in these assays?
HCMV UL50-53 inh: -27; GIV Gai3 FP: 98

How did CCOC(=O)c1cnc(SCC(=O)Nc2ccc(C)c(C)c2)nc1N do in these assays?
HCMV UL50-53 inh: -19; GIV Gai3 FP: 104

Results for COc1ccc(/C=c2\sc3n(c2=O)C(N)=C(C#N)C(c2ccc(OC)cc2)C=3C#N)cc1 (stereo not drawn) ?
Sa growth inh: 86; HCMV UL50-53 inh: -40; GIV Gai3 FP: 116; Sa growth inh second temp: 79

Results for CN(C)C(=O)CN(c1ccc(Cl)cc1Cl)S(C)(=O)=O ?
Sa growth inh: 100; HCMV UL50-53 inh: -31; GIV Gai3 FP: 98; Sa growth inh second temp: 95

What do the screens show for `COc1cc(C=Nc2ccc(C)c(C)c2)cc(OC)c1OC`?
Sa growth inh: 105; HCMV UL50-53 inh: -3; GIV Gai3 FP: 107; Sa growth inh second temp: 88

Results for C=CCc1cccc(O)c1O ?
Sa growth inh: 72; HCMV UL50-53 inh: 1; Sa growth inh second temp: 68

How did N#C/C(=C\c1cn(-c2ccccc2)nc1-c1cc2ccccc2o1)C(N)=S do in these assays?
Sa growth inh: 94; HCMV UL50-53 inh: -37; Sa growth inh second temp: 93

Results for CC(C)N(C(=O)Cn1cc(SCC(=O)Nc2ccccc2F)c2ccccc21)C(C)C ?
Sa growth inh: 112; GIV Gai3 FP: 108; Sa growth inh second temp: 93

Results for COc1ccc(-c2nc3ccccc3c(=O)n2NCc2cc(Br)ccc2O)cc1OC ?
HCMV UL50-53 inh: -29; GIV Gai3 FP: 105

What do the screens show for `CCCCOc1ccc(C(=O)Nc2ccc(-c3cc4ccccc4oc3=O)cc2)cc1`?
Sa growth inh: 103; HCMV UL50-53 inh: -39; GIV Gai3 FP: 106; Sa growth inh second temp: 86

How did COc1cccc(N2CCN(C(=O)c3cc4c(=O)oc5ccc(C)cc5c4s3)CC2)c1 do in these assays?
Sa growth inh: 108; HCMV UL50-53 inh: -38; GIV Gai3 FP: 98; Sa growth inh second temp: 86

How did COc1ccccc1OCCSc1nc2ccccc2n1CC(O)CO (stereo not drawn) do in these assays?
HCMV UL50-53 inh: -13; GIV Gai3 FP: 106

Bioassay records deposited in PubChem BioAssay by ICCB-Longwood Screening Facility, Harvard Medical School.
